CDC25B CDK2 inh – human CDC25B-CDK2/CyclinA binding inhibition; P30305+P24941; 94,000 tested, 0.72% active; z-score (test concentration not listed); HTRF CDC25B-CDK2/CyclinA binding, anti-His/anti-Flag; active compounds read high;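 note: score is relative to mean and SD of negative controls; strong numbers were not always called active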
TAR Tat displ – HIV-1 TAR-Tat binding disruption. HIV-1 TAR RNA, Tat peptide displacement FRET; active compounds read high. z-score (no concentration beside the values). 100,000 tested, 0.6% active. AID 1259389;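 note: score is relative to mean and SD of negative controls; some compounds called inactive have numbers as strong as hits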
The depositor's hits bear a star; x = not tested or not shown.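 Rule for the calls: active = z-score from 3 up in half or more of its runs; inactive = the rest.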

Screens in order: TAR Tat displ | CDC25B CDK2 inh
Cc1ccc(-c2nc3ccccc3c(C(=O)OCC(=O)c3cccc([N+](=O)[O-])c3)c2C)cc1
  x | -3.3
Cc1nn(S(=O)(=O)c2ccc(C(C)C)cc2)c(C)c1S(=O)(=O)N1CCOCC1
  0.82 | x
CCCCN1C(=O)C(O)(CC(=O)c2ccc3c(c2)OCO3)c2cc(Br)ccc21 (configuration not stated)
  1.8 | -2.8
CCOc1ccc2nc(NC(=O)c3noc4c3CSc3ccccc3-4)sc2c1
  0.82 | -2.2
O=C(ONC(=O)c1ccco1)c1ccc(Cl)cc1
  x | -1.5
Cc1ccc(-c2cc(C(F)(F)F)n3ncc(C(=O)N(C)CCc4ccccn4)c3n2)cc1
  x | -1.3
Cc1nn(-c2nc3ccccc3s2)c2c1C(c1cc(F)ccc1F)CC(=O)N2 (configuration not stated)
  -0.01 | -1
O=C(CCC(=O)N1CC=C(c2c[nH]c3ccccc23)CC1)NCCC1=CCCCC1
  -0.56 | x
O=c1cc(COc2ccccc2)nc2sc3c(n12)CCCC3
  -1.6 | -2.4
CC(C)n1c(CN2CCCCC2)nc2ccccc21
  0.23 | -0.97
CCC(C)NC(=O)Nc1cn(CC(C)C)c(=O)c2ccccc12 (configuration not stated)
  0.12 | x
Cc1oc2cc(Br)c(OCC(=O)C(C)(C)C)cc2c1C(=O)OC(C)C
  x | -2.3
CCCCCn1c(N2CCCC2)nc2c1c(=O)n(C)c(=O)n2C
  -0.14 | -0.87
CCCCN(CC)S(=O)(=O)c1ccc2c(c1)n(C)c(=O)c(=O)n2C
  1.2 | -0.22
CC(=O)c1ccc(-n2c(CCC(=O)O)ccc2-c2ccc(Cl)cc2)cc1
  x | -2.5
O/N=C/c1ccc(F)c(Cl)c1
  x | -1.6
CC(C)N1CC(=O)c2ccccc2S1(=O)=O
  1 | 1.4
Cc1nnc2c(NCC3CCCO3)nc3ccc(C(=O)c4ccccc4)cc3n12 (configuration not stated)
  0.41 | -1.5
COc1ccc(NC(=O)Nc2nnc(N3CCCC3)s2)cc1OC
  0.51 | -0.46
Cc1c(CC(=S)N2CCOCC2)sc2ccc(Cl)cc12
  x | -0.1

Some of the entries so far, with tabs:
structure	TAR Tat displ	CDC25B CDK2 inh
O=C(ONC(=O)c1ccco1)c1ccc(Cl)cc1	x	-1.5
Cc1ccc(-c2cc(C(F)(F)F)n3ncc(C(=O)N(C)CCc4ccccn4)c3n2)cc1	x	-1.3
Cc1nn(-c2nc3ccccc3s2)c2c1C(c1cc(F)ccc1F)CC(=O)N2 (configuration not stated)	-0.01	-1

(next part)
Screens in order: TAR Tat displ | CDC25B CDK2 inh
O=C(O)Cn1c(C(=O)Nc2nc(-c3ccccc3Cl)cs2)cc2ccccc21
  x | -1.7
CC(Cc1ccco1)NC(=O)C1CCN(c2ccc(-c3cccs3)nn2)CC1 (configuration not stated)
  -0.57 | x
CC1CCN(C(=O)c2cc(S(=O)(=O)N3CCOCC3)cn2C)CC1
  2.9 | x
COc1ccc2[nH]cc(CCNC(=O)C3CC3)c2c1
  0.44 | -1.8
O=C1N(CCc2ccccc2)c2ccccc2C1(O)c1c[nH]c2ccccc12 (configuration not stated)
  2.7 | 0.66
O=C(c1ccccc1)c1ccccc1NC(=O)C1CCCN1Cc1ccccc1 (configuration not stated)
  x | -1.5
CC(C)(C)OC(=O)CC(NC(=O)OCc1ccccc1)C(N)=O (configuration not stated)
  x | 0.37
O=C(O)C1CC=C(Cl)CC1C(=O)Nc1cncs1 (configuration not stated)
  x | -3.4
Cc1ccc2c(c1)c(N1CCCC1=O)c(C(=O)O)n2C
  1.3 | x
COc1ccc2c(ccc(/C=C3\Sc4ccccc4N3C)[n+]2C)c1
  -9.2 | 1.6
CC(C)(C)SCCNC(=O)CN1C(=O)c2cccc3cccc1c23
  3.4 | 0.42
O=C(Nc1nnc2n1CCS2)c1ccc(Br)cc1
  0.61 | x
O=C(/C=C/c1ccc(-c2ccccc2[N+](=O)[O-])o1)Nc1ccc(O)c(-c2nc3ccccc3o2)c1
  x | -2.3
CC1=C(C(=O)OCCOC(C)C)C(c2ccc(N(C)C)cc2)C2=C(CCCC2=O)N1 (configuration not stated)
  0.99 | -2.6
O=C(NC(=S)Nc1ccc2c3c(cccc13)CC2)c1cccc(I)c1
  x | -9.6
CCC(O)c1nc2ccccc2n1CCCOc1ccccc1OC (configuration not stated)
  1.6 | -0.75
Nc1ccc(Cn2cnc(-c3nc(-c4cccc(F)c4)no3)c2)cc1
  2.5 | -2.2
Cn1c(=O)c(=O)n(C)c2cc(N3CCCCC3)c(NC(=O)c3ccco3)cc21
  -0.28 | -1.1
Cc1ccc(-n2nnc(-c3nc(-c4ccc5c(c4)OCO5)no3)c2C)cc1C
  -0.63 | x
O=c1[nH]c(SCCCc2ccccc2)nc2c1CCCC2
  1.2 | -2.5
c1ccc(CSc2nc3ncccc3o2)cc1
  1.1 | x
CCCCN(CC)S(=O)(=O)c1cc2c(cc1Cl)NC(=O)CO2
  -6.6 | x
O=c1cc(CSc2ccc(Cl)cc2)nc2sccn12
  -0.55 | -2.6
Cn1c(=O)c2c(-c3ccc(Br)cc3)n(-c3ccccn3)cc2n(C)c1=O
  0.42 | -1.6
O=C(O)CN1C(=O)c2cccnc2Oc2ccc(Cl)cc21
  -0.61 | -0.69
COc1cccc(-c2cnc(NCc3cccc(Br)c3)n2C)c1
  0.66 | -0.94
CCc1nnc2c3ccccc3nc(Nc3cc(F)ccc3C)n12
  1.1 | x
CNC(=O)NCc1c(N(C)C)cccc1N(C)C
  x | -1.9
CCNC(=O)c1c(NC(=O)c2nc(S(=O)(=O)CC)ncc2Cl)sc2c1CCCC2
  1.8 | -2.5
COCCNc1oc(/C=C/c2ccccc2OC)nc1C#N
  1 | -1.8
Cc1ccc(/C(O)=C2\C(=O)C(=O)N(CCCC(=O)O)C2c2ccc(N(C)C)cc2)cc1 (configuration not stated)
  x | -0.31
Cc1ccc(-c2nc(SCc3cc(=O)c4c(C)ccc(C)c4[nH]3)n[nH]2)cc1
  -0.36 | x
COC(=O)C1=C(C)NC2=C(C(=O)CC(c3ccc(OC)c(OC)c3)C2)C1c1cccc(C)c1 (configuration not stated)
  x | -0.78
CCCN1CCN(C(=O)CCC(=O)N2Cc3ccccc3Oc3ncccc32)CC1
  -0.28 | x
CC1CC(C)CN(C(=O)c2cc3c(s2)-c2ccc(Cl)cc2S(=O)(=O)C3)C1 (configuration not stated)
  0.53 | 0.1
Cc1ccc(Cl)cc1-n1ncc2c(N(C)C)ncnc21
  1.1 | x
O=C(Nc1ccccc1)Nc1ccccc1C(=O)NCc1ccco1
  x | 0.19
Cc1cccc(-n2cc(-c3ccc4c(c3)OCO4)[nH]c2=S)c1C
  x | -1.6
Cc1cc(C)c(Cn2cccc2CNC(=O)NC2CCCC2)c(C)c1
  1.3 | x
COc1cc(C2Nc3ccccc3-c3cc(C)nn32)ccc1O (configuration not stated)
  0.14 | -0.67

Of the compounds above, 5 contain fluorine.
Screens in order: TAR Tat displ | CDC25B CDK2 inh
Cc1ccc(-c2cc(C(F)(F)F)n3ncc(C(=O)N(C)CCc4ccccn4)c3n2)cc1
  x | -1.3
Cc1nn(-c2nc3ccccc3s2)c2c1C(c1cc(F)ccc1F)CC(=O)N2 (configuration not stated)
  -0.01 | -1
O/N=C/c1ccc(F)c(Cl)c1
  x | -1.6
Nc1ccc(Cn2cnc(-c3nc(-c4cccc(F)c4)no3)c2)cc1
  2.5 | -2.2
CCc1nnc2c3ccccc3nc(Nc3cc(F)ccc3C)n12
  1.1 | x

The list goes on.
Screens in order: TAR Tat displ | CDC25B CDK2 inh
CC(=O)c1cc2ccccc2o1
  x | -1.2
Cn1c2c(c(=O)n(C)c1=O)C(c1ccc(O)cc1)C1C(=O)c3ccccc3C1=N2 (configuration not stated)
  0.41 | -0.33
Cc1cc(C)nc(NS(=O)(=O)c2ccc(Nc3nc(-c4ccccn4)cs3)cc2)n1
  x | -4.1
Cc1ccc2oc(=O)c(CCC(=O)O)nc2c1
  0.16 | -1.5
CCc1cc2c3c([nH]c2cc1S(=O)(=O)N(CC)c1ccccc1)CC(C)(C)CC3=O
  2.5 | x
Cc1cc(C(=O)NC(C)c2ccc3c(c2)OCO3)no1 (configuration not stated)
  0.28 | x
CCC(C)NC(=O)CN1C(=O)N(c2cccc(SC)c2)S(=O)(=O)c2ccccc21 (configuration not stated)
  2 | x
CCN(CC)CCNCC1CCOC(C)(C)C1 (configuration not stated)
  0.02 | -1.2
Cc1ccc(-c2noc(COc3ccccc3)n2)cc1
  x | -2.2
CC(=O)N1CCC(C)Sc2ccc(S(=O)(=O)N3CCc4ccccc43)cc21 (configuration not stated)
  1.2 | x
Cc1ccc(-c2noc3ncnc(N4CCN(Cc5ccccc5)CC4)c23)cc1
  2 | x
CCn1c2ccccc2c2nnc(SCC(=O)Nc3nc4ccccc4s3)nc21
  0.78 | -0.7
CC(C)CC(=O)N1CCc2cc(CN)ccc21
  -0.91 | -0.01
O=C(Nc1ccc(N2CCOCC2)c(Cl)c1)c1ccccc1
  x | -2
CCC(C(=O)NCCC1=CCCCC1)N1C(=O)CCn2nc(C)cc21 (configuration not stated)
  0.28 | x
CCCc1[nH]n(C)c(=O)c1C(=O)c1cc2ccccc2s1
  x | 0.06
CC(C)N1C=C(OC(=O)CN2C(=O)CCC2=O)c2ccccc2S1(=O)=O
  -0.29 | -0.92
CC(C)CCCC(C)[C@H]1CCC2C3CC=C4C[C@@H](O)CC[C@]4(C)C3CC[C@@]21C (some centres not stated)
  0.48 | x
COc1ccc(NC(=O)NCc2c(-n3cccc3)sc3c2CCCC3)c(OC)c1
  1.5 | -0.65
C=CCN1/C(=C/c2cc[n+](C)cc2)Sc2ccccc21
  4.1* | 0.36
CCOC(=O)c1cc(S(=O)(=O)NC(C)CC)cn1C (configuration not stated)
  1.4 | -1.3
CN(CCO)c1cc(N2CCN(c3ccccc3)CC2)c2noc3c2c1C(=O)c1ccccc1-3
  -0.44 | -1.3
Cc1ccc(Cn2c(=O)n(Cc3nc(C)no3)c(=O)c3cc4c(cc32)OCO4)cc1
  -1.1 | x
CCOC(=O)c1c(S(=O)(=O)NCCc2ccco2)c(C)n(C)c1C
  2.2 | x
Clc1ccc(CSc2nc3ncccc3[nH]2)cc1
  1.6 | -1.5
COc1cc([N+](=O)[O-])c(OC)cc1SCC(=O)NNS(=O)(=O)c1ccc(C)cc1
  x | -2
CC(C)COC(=O)COc1ccc2c(=O)c(Oc3ccccc3Br)coc2c1
  -0.7 | -1.3
Cc1noc(C)c1CCNC(=O)c1noc2c1CCc1sccc1-2
  0.34 | x
CC1CN(C(=O)Nc2ccc(F)cc2)c2cc(Cl)ccc2O1 (configuration not stated)
  0.53 | -2.6
COc1ccc2[nH]cc(CCC(=O)O)c2c1
  0.44 | -1
CCCCOc1ccc(S(=O)(=O)NCCc2cn3cccc(C)c3n2)cc1
  x | -1.5
CCN(CC)CCNC(=O)c1ccc(-n2ccc3ccccc32)s1
  0.87 | x
Cc1ccc(C)c(NC(=O)N2CCN(c3cc(N(C)C)nc(C)n3)CC2)c1
  0.23 | -1.7
COC(=O)CSCC(=O)N1N=C(c2cccs2)CC1c1ccc(C)cc1 (configuration not stated)
  x | 0.42
CCOc1cccc(C2c3c(oc4ccccc4c3=O)C(=O)N2c2nc(C)c(C)s2)c1 (configuration not stated)
  -3.5 | -2
Cn1cnc2c(=O)oc3ccc(S(=O)(=O)NC4CCCC4)cc3c21
  -0.34 | x
Cc1ccc(-c2cc(C(=O)N(Cc3sccc3C)C3CCS(=O)(=O)C3)no2)cc1F (configuration not stated)
  1.4 | -0.57
CC(=O)O[C@@H]1CC2C(C)(C)C(=O)C3OC3[C@]2(C)C2CC[C@@]3(C)[C@H](c4ccoc4)OC(=O)C4OC43[C@@]21C (some centres not stated)
  0.39 | x
FC(F)(F)c1ccc(SCc2ccc(-c3ncns3)cc2)nc1
  x | -1.5
N#CC1=C(SCc2ccccc2)NC(=O)CC1c1ccc(Cl)cc1 (configuration not stated)
  0.53 | -2.6
COC(=O)c1sc2cccc(F)c2c1S(=O)(=O)Nc1cc(Cl)c(OC)cc1OC
  -0.32 | x
COc1ccc2cc(NC(=O)NC3CC3)n(C)c2c1
  -0.37 | -1.5
Cc1noc(C)c1CCSCc1cc(=O)n2c3c(sc2n1)CCCC3
  0.38 | x
O=C(O)CC(NC(=O)Nc1ccccc1)c1ccsc1 (configuration not stated)
  x | -2.3
CCc1nc(SCC(=O)NCc2ccco2)c2c(=O)n(C)c(=O)n(C)c2n1
  -0.33 | x
CN(CCOC(=O)c1cccs1)C(C)(C)C
  1.6 | -2.1
O=C(c1ccc(F)cc1)c1coc2ccc(O)cc12
  -1.1 | -1.3
COc1ccc(OC)c(S(=O)(=O)NCc2cn3c(C)csc3n2)c1
  2.2 | 1.1
CCc1c(C)nc2ncnn2c1Nc1ccc(OC)cc1
  3.9 | -1.1
O=C(Nc1c(C(=O)N2CCC(N3CCCCC3)CC2)oc2ccccc12)c1c(F)cccc1F
  0.62 | x
CCOC(=O)c1c(C)n(C)c2ccc(OC(C)=O)c(S(=O)(=O)c3ccccc3)c12
  x | -2.8
CS(=O)(=O)Nc1nc2n(n1)C(c1ccc(Cl)cc1)C=C(c1ccccc1)N2 (configuration not stated)
  0.67 | 1.8

This is a random part of the collection; about 0.9% have a hit in one of these screens.
